Screening data: PubChem BioAssay, several laboratories
CSC inhib: cancer stem cell inhibition; cancer stem cell-like cells viability, luminescence; inhibition, % at 7.5 µM; 300,000 compounds, 1.1% hits;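 active = mean at 75% or more and at least half the replicates too; inconclusive = mean and replicates disagree; tested in HMLE shEcad cells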;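 note: 0% = median of negative and 100% = median of positive control wells; the first replicate is given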
eIF4H inh: inhibitors of RNA binding by human eIF4H; Q15056; eIF4H fluorescence polarization binding assay; inhibition, % at 35 µM; 290,000 compounds, 0.94% hits;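 active = 50% or more with normal probe brightness, or confirmed in later tests; inconclusive = above 50% with abnormal brightness, or retests that disagree; inactive = below 50% or failed in later tests; about a fifth of its hits are not listed in these tables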;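 note: calls also rest on retests at 20 µM and on dose response follow-up; 0% = protein and probe with vehicle and 100% = probe without protein; strong numbers were not always called active; many hits fall short of the cut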
MT1-MMP act inh: inhibitors of human MT1-MMP activation; P50281; HT1080 RFP-PRO-GFP cells, GFP/RFP ratio fluorescence, overnight; percent of plate control window, DMSO zero; GFP/RFP ratio change, % at 20 µM; 360,000 compounds, 0.061% hits;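 active = GFP/RFP ratio change of at least 30% with cell ATP level not reduced by more than half and red fluorescence within 50% of control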; note: strong numbers were not always called active
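Assay system: HT1080 cells carrying an RFP-PRO-GFP reporter | Dosing: Single dose of 20 µM compound, 1% DMSO final | Incubation: Cells overnight before dosing, compound overnight, 37 °C, 5% CO2 | Evaluation: GFP/RFP fluorescence ratio | Control set: DMSO and RFP-L50D-GFP cell wells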
Rce1 inh: inhibitors of yeast Ras-converting enzyme. Q03530. yeast membranes, quenched prenylated peptide cleavage fluorescence. calls only. 290,000 compounds, 0.27% hits;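 active = fall in fluorescence gain of 50% or more versus controls, with final raw signal at or below 3038400; inconclusive = same 50% fall but final raw signal above 3038400; inactive = fall in fluorescence gain under 50%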;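 note: plate controls were neutral control wells for no effect and wells lacking membranes for full effect; tested at 10 µM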
Target sequence (Q03530 whole entry, looked up): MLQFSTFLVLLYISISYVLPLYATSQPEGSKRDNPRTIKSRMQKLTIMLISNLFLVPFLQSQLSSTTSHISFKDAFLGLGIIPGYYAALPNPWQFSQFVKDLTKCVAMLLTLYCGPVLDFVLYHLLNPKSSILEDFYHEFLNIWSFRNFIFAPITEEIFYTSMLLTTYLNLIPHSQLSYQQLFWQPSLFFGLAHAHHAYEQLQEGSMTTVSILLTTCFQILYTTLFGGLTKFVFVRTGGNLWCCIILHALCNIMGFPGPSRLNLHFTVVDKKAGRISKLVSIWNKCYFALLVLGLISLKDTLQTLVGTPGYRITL
PABP polyA inh: blocks human PABP binding to poly(A) RNA; fluorescence polarization; inhibition, % at 35 µM; 290,000 compounds, 1% hits; AID 2014;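 active = 50% or more with normal probe brightness, or confirmed in later tests; inconclusive = above 50% with abnormal brightness, or retests that disagree; inactive = below 50% or failed in later tests; about a fifth of its hits are not listed in these tables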;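 note: calls also rest on retests at 20 µM and on dose response follow-up; controls were probe without protein and protein plus probe with vehicle; some compounds called inactive have numbers as strong as hits; many hits fall short of the cut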
HIV Env fusion: HIV envelope-mediated fusion inhibition | HeLa-JRFL Env/CEM21 cell fusion, luciferase | inhibition, % at 12.3 µM | 360,000 compounds, 1.1% hits;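 active = mean replicate inhibition score of at least 50 and every replicate individually at or above 50; inconclusive = only one of the two criteria met; inactive = mean below 50 and not all replicates reaching 50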;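 note: 0% = plate neutral controls and 100% = maraviroc near 300 nM; one replicate is shown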
Yeast UUG start: alters start codon recognition fidelity in yeast; AID 602363; activity score, % at 18.7 µM; 350,000 compounds, 0.13% hits; S. cerevisiae UUG-firefly luciferase reporter, luminescence/redox ratio;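 active = replicate mean at a twofold rise or more, about +100% in these data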;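 note: firefly luciferase made from a UUG start codon reports start codon fidelity; reporter light over untreated wells divided by growth signal over untreated wells; some hits fall short of that in this replicate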
MT1-MMP act inh RFP: recorded beside MT1-MMP act inh, whose call it bears; RFP signal change, %; measured here: RFP expression control read;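 0 = vehicle wells; hits needed this value within 50% of zero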
The depositor's hits bear a star; i = inactive; ? = inconclusive; . = not tested or not shown; & = joins results of further samples. Some of the compounds tested, so the mix of outcomes need not match the whole.

SMILES | CSC inhib | eIF4H inh | MT1-MMP act inh | MT1-MMP act inh RFP | Rce1 inh | PABP polyA inh | HIV Env fusion | Yeast UUG start
Brc1ccc(-c2csc(N3CCCCCC3)n2)cc1 | 24 | 1 | 0 | -1 | i | 1 | 18 | -18
CCOc1cc(-c2sc(Nc3ccc(CC)cc3)n[n+]2-c2ccccc2)ccc1OC | -12 | . | 6 | -1 | . | . | -78 | -24
O=[N+]([O-])c1ccc(/C=N/NC(=S)Nc2ccccc2F)o1 | 2 | 18 | -3 | 0 | i | -12 | -54 | -33
CCOCCCNC(=O)CN1N=C(c2ccc(C)cc2)CCC1=O | 7 | -4 | 0 | 0 | i | 22 | 25 | -8
CC1CCC(NC(=O)CN(C)S(=O)(=O)c2cnc[nH]2)CC1 (stereo unspecified) | -11 | -9 | -6 | 1 | i | 11 | -8 | .
NC(=O)CSc1nnc(CSc2ncccn2)n1-c1ccccc1 | -5 | 1 | 2 | 6 | i | 1 | 19 | .
COc1cccc(NC(=O)Cc2nnc(SCC(=O)NC3CCCCC3)n2C)c1 | . | -2 | 2 | 6 | i | 7 | 1 | .
CC(Sc1nncn1C)C(=O)Nc1ccccc1-c1ccccc1 (stereo unspecified) | 4 | 0 | 8 | 9 | i | -10 | . | -17
CC(C)NC(=O)C1CCN(C2CCN(CC3CC=CCC3)CC2)CC1 (stereo unspecified) | 0 | -1 | 0 | 1 | i | -2 | -46 | .
C=C1CC(C)OC(c2ccccc2OCC(O)CN2CCCCC2)C1 (stereo unspecified) | -7 | 5 | 0 | 2 | i | 1 | 2 | 2
Cc1oc2cc(O)ccc2c(=O)c1-c1nncn1-c1ccccc1 | -8 | ? | -21 | 0 | i | ? | -9 | .
CC(C)OP(=O)(OC(C)C)C(NC(=O)c1cccc([N+](=O)[O-])c1)C(N)=O (stereo unspecified) | 6 | 2 | 4 | 2 | . | 11 | 28 | 7
OCCN(CCO)c1ncnc2c1oc1ccc(Br)cc12 | . | 3 | -8 | 1 | i | 4 | -250 | -6
CCC(C)C(=O)Nc1nnc(SCC(=O)N2C(C)CCCC2C)s1 (stereo unspecified) | -9 | -8 | 0 | 0 | i | 0 | 8 | -7
C=CCn1c(C)cc(C(=O)CSc2nc3ccccc3c(=O)[nH]2)c1C | 6 | 22 | -10 | -13 | . | 19 | -13 | 2
CCCCN(C(C)=O)c1c(CC)nc2ccc(C(=O)Nc3cccc(OCC(=O)N(C)C)c3)cn12 | . | . | 1 | 5 | . | . | -16 | -12
O=C(N/C(=C\c1ccc(F)cc1)C(=O)N1CCOCC1)c1ccccc1 | 7 | 0 | -2 | 2 | i | 12 | -10 | -7
COc1ccc(-n2c(SCC(=O)Nc3ccccc3)nnc2-c2ccoc2C)cc1 | . | . | 1 | 2 | i | . | -80 | -11
O=C(COc1ccc2c3c(c(=O)oc2c1)CCC3)N1CCN(c2ccccc2)CC1 | -7 | . | -1 | 2 | i | . | -7 | -14
Cn1c(=O)[nH]c(=O)c2c1[nH]c(=S)n2Cc1ccc(Cl)cc1 | -3 | -2 | 3 | 3 | i | 14 | 4 | -18
COc1ccc(NS(=O)(=O)c2cccc(C(=O)NNC(=O)c3cc(C)oc3C)c2)cc1 | 18 | -13 | 7 | 2 | i | -4 | 26 | .
CCOC(=O)c1cc(C(C)=O)n2ccccc12 | -5 | -18 | 9 | 3 | i | -6 | -54 | -7
Cc1cc(=O)oc2cc(OC(C)C(=O)Nc3ccc(N4CCCCC4)cc3)ccc12 (stereo unspecified) | -17 | -10 | 0 | -2 | i | 1 | -51 | -15
O=c1nc2n(Cc3ccccc3)c3ccccc3cc-2c(=O)[nH]1 | -1 | 6 | . | . | i | 19 | -8 | .
COc1ccc(-n2ncc3c(N4CCC(C)CC4)ncnc32)cc1 | 45 | 5 | 2 | 0 | i | -5 | -74 | -41
Cc1c(NC(=O)c2ccc3c(c2)OCO3)cccc1-c1nc2ncccc2o1 | -10 | -2 | 0 | -4 | i | -5 | 3 | -4
Cc1cccc(NC(=O)C2COc3ccccc3O2)n1 (stereo unspecified) | -21 | 2 | -5 | -5 | i | -11 | -3 | .
CCOC(=O)c1ccc(NC(=O)c2cc(S(=O)(=O)N3CCOCC3)ccc2O)cc1 | 17 | -12 | 2 | -15 | . | 2 | . | -13
COc1cc(-c2noc(C)c2-c2ccc3[nH]ccc3c2)cc(OC)c1OC | 7 | -7 | 15 | -1 | i | -4 | . | -7
NC(=O)NCC1CC1 | -4 | 2 | 5 | 2 | i | -3 | -7 | -17
Cc1ccnc2nc(C(=O)OCC(=O)N(Cc3ccccc3)C(C)C)nn12 | 0 | . | -1 | 2 | . | . | . | -10
COc1ccc(CCNC(=O)c2c(O)c3ccccc3[nH]c2=O)cc1OC | 8 | -6 | 0 | 1 | i | -1 | 1 | -3
Cc1ccc(S(=O)(=O)N2CC(C)N(C(=O)N3CCOCC3)C2C)cc1 (stereo unspecified) | 1 | 49 | 4 | 3 | i | 3 | 1 | 2
COc1ccc(C(CNC(=O)c2cccc(S(=O)(=O)N3CCOCC3)c2)N2CCCC2)cc1 (stereo unspecified) | -20 | . | -6 | 1 | . | . | 13 | 92
COc1ccc(NC(=O)N(C)[C@H]2C[C@H]3c4[nH]c5ccc(-c6ccc(OC)cc6)cc5c4CCN3C[C@H]2[C@H](C)O)cc1 | . | . | -4 | -5 | . | . | 27 | -2
CCCN1Cc2cccc(C(=O)Nc3ccc(S(=O)(=O)N4CCCCCC4)cc3)c2C1=O | . | -5 | 5 | 2 | . | 4 | . | -4
CC1=NN(C(N)=S)C(=O)C1N=Nc1cc(Cl)ccc1Cl (stereo unspecified) | -11 | 10 | 3 | 4 | i | 11 | -14 | .
CC(=O)N1N=C(c2cccc([N+](=O)[O-])c2)OC1c1ccc(Cl)cc1Cl (stereo unspecified) | 10 | -5 | -1 | -9 | i | 2 | -3 | -7
C/C(=N\Nc1ccc([N+](=O)[O-])cc1)c1cccc(N)c1 | -12 | -15 | 11 | -2 | i | -2 | . | -16
COc1ccc(CCN2C(=O)CC(NNC(=O)c3ccc(F)cc3)C2=O)cc1OC (stereo unspecified) | -11 | -1 | -6 | -5 | i | 6 | 6 | 4
O=C(NNC(=O)c1cc(-c2ccccc2)nc2ccccc12)c1csc(N2CCOCC2)n1 | 12 | . | 4 | 0 | i | . | -8 | .
O=C(Nc1ccccc1)c1cnc(-c2ccccc2)nc1-c1ccccc1 | 8 | -1 | -7 | -9 | i | -13 | -13 | -12
Cc1ccnc2nc(C(=O)OCC(=O)c3ccc(NC(=O)CC(C)C)cc3)nn12 | -8 | . | -2 | 1 | . | . | -6 | -18
COc1ccc(N(C(=O)C(C)C)S(=O)(=O)c2ccc3ccccc3c2)cc1 | 13 | -8 | 5 | -2 | i | 2 | -1 | -26
Cc1cc(NC(=O)COC(=O)c2ccc(S(=O)(=O)N3CCCC3)cc2)no1 | 12 | 2 | 2 | 4 | i | -1 | -22 | -12
CC1CCN(Cc2c(C(=O)N/N=C/c3cc(Cl)ccc3O)nnn2-c2nonc2N)CC1 | . | 6 | -9 | -6 | i | -4 | 24 | -30
CCCS(=O)(=O)N1CCCC(C(=O)NCCCN2CCN(c3ccccc3F)CC2)C1 (stereo unspecified) | -10 | -10 | 2 | 4 | i | -3 | . | -7
CN(C)c1ccc(/C=N/NC(=O)CCCCCNC(=O)c2ccccc2)cc1 | -5 | -19 | -2 | 0 | i | -4 | 3 | .
Cc1ccc(-c2ccc(CCC(=O)O)n2CC(=O)O)cc1 | 3 | 38 | 0 | 4 | i | 50 | . | -14
CCN(CC)C(=O)c1cccc(-c2csc(C(C)(O)c3ccc(OC)cc3)n2)c1 (stereo unspecified) | . | . | -8 | -25 | . | . | 16 | 5
CCc1cccc(NC(=O)C2CCN(S(=O)(=O)c3ccc4[nH]c(=O)ccc4c3)CC2)c1 | 8 | 2 | 1 | 9 | i | -16 | 21 | -9
O=C1c2ccc(Cl)cc2S(=O)(=O)c2cccc(C(=O)N3CCN(c4ncc(Br)cn4)CC3)c21 | 11 | . | 1 | 1 | . | . | 3 | 1
O=C(Nc1nc(-c2cc(F)ccc2F)cs1)c1ccccn1 | 43 | 16 | 2 | -5 | i | -7 | -11 | .
COc1cc(NC(=S)NCc2ccco2)c(OC)cc1Cl | 10 | -7 | 0 | 3 | . | 1 | 1 | .
COc1ccc(NC(=O)COc2cccc(-n3cnnn3)c2)cc1 | . | -8 | -4 | -3 | i | -1 | 11 | -7
COC(=O)C1CCN(C(c2cc(OC)c(OC)c(OC)c2)c2sc3nc(C)nn3c2O)CC1 (stereo unspecified) | 11 | -10 | 1 | 5 | i | -7 | . | -8
COc1ccc(CNC(=O)c2cc3c(=O)n4ccccc4nc3n(CC3CCCO3)c2=N)cc1 (stereo unspecified) | 1 | -5 | 6 | -1 | i | -5 | -45 | 6
CCCCN1CCNC[C@@H]1c1ccccc1 | -4 | . | 2 | 7 | . | . | 0 | -16
COc1ccccc1NC(=S)N1CCC(c2nc3cc(C)c(C)cc3[nH]2)CC1 | -8 | -4 | -1 | -3 | i | -3 | . | -27
CC(C)Cn1cnc2c(SCCc3ccccc3)nc(N)nc21 | . | . | 2 | -8 | . | . | 8 | -3
Going on with the list:
SMILES | CSC inhib | eIF4H inh | MT1-MMP act inh | MT1-MMP act inh RFP | Rce1 inh | PABP polyA inh | HIV Env fusion | Yeast UUG start
COc1ccc(CCN(C(=O)c2ccco2)C(C(=O)NC2CCCC2)c2ccncc2)cc1OC (stereo unspecified) | 5 | -2 | -1 | -1 | . | 0 | 26 | -6
Cc1cc(C(=O)c2ccccc2)c(NC(=O)CN2CCOCC2)s1 | 4 | 2 | 0 | -1 | i | 10 | -3 | .
CNC[C@@H]1Oc2ccc(NC(=O)Nc3ccccc3)cc2C(=O)N([C@@H](C)CO)C[C@H]1C | -2 | . | 0 | 3 | . | . | -4 | 6&31
CC[C@H](NC(=O)CC[C@H]1O[C@@H](n2cnc3c(NC(=O)c4ccccc4)ncnc32)[C@H](O)[C@@H]1O)c1ccccc1 | . | . | 2 | 2 | . | . | 8 | -10
Cc1nn(-c2ccc(F)cc2)c2sc(C(=O)OC3CCOC3=O)cc12 (stereo unspecified) | -1 | 1 | 6 | 0 | i | 4 | -4 | -13
CCn1c(SCC(=O)Nc2nc3ccccc3s2)nc2c(c1=O)SC(C)C2 (stereo unspecified) | 12 | -10 | . | . | i | -12 | . | .
COCCN(C)Cc1cn(-c2ccc(F)cc2F)nc1-c1ccccc1C | -9 | -1 | -7 | -4 | i | 2 | 17 | .
COc1ccccc1CNc1cncnc1 | -10 | -5 | -8 | -1 | i | -15 | 12 | -11
C/C(=N/NC(=O)c1ccc(Br)o1)C(C)C | -5 | -2 | 3 | 4 | i | 1 | . | -6
CC(=O)c1ccc(-c2cnc3c(NC=O)cc(-c4ccc(N5CCN(C)CC5)cc4)cn23)cc1 | . | . | -10 | 11 | . | . | -37 | -16
O=C(N/N=C/c1ccc(OC(=O)c2ccc3c(c2)OCO3)cc1)c1cncc(Br)c1 | -7 | -10 | 8 | 3 | i | 4 | -3 | -9
CSc1ncc(Cl)c(C(=O)Nc2ccccc2C)n1 | -9 | -4 | 1 | 2 | i | 2 | -3 | -19
